# SARS 3CLpro inh – SARS-CoV 3CLpro protease inhibition; P0C6X7; recombinant SARS-CoV 3CLpro, quenched FRET peptide cleavage; inhibition, % at 6 µM; 290,000 tested, 0.14% active; AID 1706; in the data active means inhibition above about 12%
# Vc quorum ag – inducers of Vibrio cholerae quorum light production without autoinducers | activation, % at 18.7 µM | 350,000 tested, 0.16% active | V. cholerae BH1578 lux reporter, luminescence, 6 h; in the data active means activation mostly above about 9.7%, no sharp cut-off; further: not every result past the cut was called active; inactives centre near 0; reference of the scale not given here
# SSB-PriA inh – inhibitors of Klebsiella pneumoniae PriA binding to SSB C-terminal tail. AlphaScreen SSBct-PriA binding, biotinylated peptide. 430,000 tested, 0.6% active. inhibition, % at 33 µM. AID 1272365; in the data active means inhibition mostly above about 37%, no sharp cut-off; inactive means mostly below about 20%;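 further: plate controls were negative control peptide for no effect and reference peptide for full effect; strong numbers were not always called active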
# Rv3671c protease – inhibitors of M. tuberculosis serine protease Rv3671c; 320,000 tested, 0.048% active; P9WHR9; inhibition, % at 5.96 µM; AID 2606; in the data active means inhibition above about 38%;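 further: extracellular domain of Rv3671c used as enzyme; 0% = enzyme with DMSO and 100% = no enzyme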
# UGM FP inh – inhibitors of M. tuberculosis UDP-galactopyranose mutase; P9WIQ1; purified UGM, fluorescence polarization probe displacement; inhibition, % at 10 µM; 320,000 tested, 0.06% active; in the data active means inhibition above about 10%, passing the limit was not always enough
# Target sequence (P9WIQ1 whole entry, looked up): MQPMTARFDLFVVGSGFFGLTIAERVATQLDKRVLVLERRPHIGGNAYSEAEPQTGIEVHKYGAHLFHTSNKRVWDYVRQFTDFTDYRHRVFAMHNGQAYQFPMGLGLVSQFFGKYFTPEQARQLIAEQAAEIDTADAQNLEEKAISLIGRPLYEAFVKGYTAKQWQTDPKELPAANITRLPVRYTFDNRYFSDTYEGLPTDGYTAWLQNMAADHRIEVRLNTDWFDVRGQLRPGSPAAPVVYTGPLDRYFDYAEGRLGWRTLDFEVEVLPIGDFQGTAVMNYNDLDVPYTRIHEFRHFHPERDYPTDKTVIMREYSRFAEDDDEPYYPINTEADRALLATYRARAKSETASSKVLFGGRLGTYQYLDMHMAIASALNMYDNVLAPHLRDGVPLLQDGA
# DUSP3 inh – inhibitors of human VHR1 phosphatase (DUSP3) | recombinant VHR phosphatase, pNPP absorbance | inhibition, % at 13.3 µM | P51452 | 290,000 tested, 0.52% active; in the data active means inhibition above about 50%; further: some compounds called inactive have numbers as strong as hits
# Target sequence (P51452 whole entry, looked up): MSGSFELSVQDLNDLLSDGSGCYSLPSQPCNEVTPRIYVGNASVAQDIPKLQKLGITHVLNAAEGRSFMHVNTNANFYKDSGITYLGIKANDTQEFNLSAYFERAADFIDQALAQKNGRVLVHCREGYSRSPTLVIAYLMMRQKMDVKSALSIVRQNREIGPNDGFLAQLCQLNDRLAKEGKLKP
# GDH-TPI counter – counter-screen for M. tuberculosis FBA inhibitors: GDH-TPI coupled enzymes; inhibition, % at 4.8 µM; 360,000 tested, 1.2% active; GDH-TPI coupled enzyme counterscreen, NADH absorbance; in the data active means inhibition above about 30%;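 further: 0% = DMSO wells and 100% = wells lacking the enzyme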
# Mtb BioA inh – BioA (M. tuberculosis) enzyme inhibition | purified M. tuberculosis BioA enzyme, plate reader | inhibition, % at 9.99 µM | 360,000 tested, 0.096% active | AID 602481; in the data active means inhibition above about 40%
# An asterisk follows results filed as active; i = inactive; x = not tested or not shown; & = joins results of further samples. Not all compounds are listed; count on the stated rates, not on these rows.
SMILES,SARS 3CLpro inh,Vc quorum ag,SSB-PriA inh,Rv3671c protease,UGM FP inh,DUSP3 inh,GDH-TPI counter,Mtb BioA inh
CCOC(=O)c1cncn1[C@H](C)c1ccccc1,-1,x,x,6,1.2,30,x,x
Cc1cccc(NC(=O)COC(=O)C2C3CC4OC(=O)C2C4C3)c1C (centres undefined),-3,-0.2,-7,-10,-2.9,-1,3,x
COc1cc(-c2noc(C)c2C(=O)NCCCN2CCCC2=O)cc(OC)c1OC,x,-0.6,-5,3,0.2,x,3,-1.4
CC(CN(C)C1CCN(C)CC1)c1ccccc1 (centres undefined),1,i,-6,x,4.5,-20,4,-4.6
CCCC(=O)Nc1ccc2c(c1)nc1n2CCN(C2CCCCC2)C1,2,i,16,-8,-3.4,28,5,x
C=CCN1C2CCCC1CC(NC(=S)Nc1cccc(OC)c1)C2 (centres undefined),-1,i,-17,2,-1.8,31,-3,x
Cc1cccc(-c2c(NC(=O)c3ccco3)oc3ccc(Cl)cc3c2=O)c1,-1,-0.2,0&-6,-7,-0.8,-2,30,-0.9
O=C(O)CCNC(=O)c1ccccc1,-2,4.2,-6,6,-0.5,5,14,0.9
COc1c(N2C[C@@H]3CCCN[C@@H]3C2)c(F)cc2c(=O)c(C(=O)O)cn(C3CC3)c12,x,-0.6,-6,0,0.8,x,21,-1.0
O=C(O)c1ccc(Cl)c(NCc2cccnc2)c1,4,0.2,-2,0,-3.4,-4,15,0.1
Cc1ccc(NC(=O)CCCn2c(=O)[nH]c3ccsc3c2=O)cc1,-4,i,-11,8,2.6,26,-11,-0.7
COc1cc(-c2nnc(COC(=O)c3cccn3C)o2)cc(OC)c1OC,5,-1.7,-2,-8,-0.5,-7,18,2.2
CCCc1cc(C(N)=O)c(NC(C)=O)s1,4,-12,-23,8,1.7,-9,5,-4.8
CCc1cccc(N(C(=O)c2csnn2)C(C(=O)NC(C)(C)C)c2ccncc2)c1 (centres undefined),1,2.5,-19,-7,-1.6,35,-4,x
C=CCNC(=O)c1ccc2c3n(nc2c1)-c1ccc(C)cc1CO3,x,i,-21,-25,4.6,26,8,-0.3
Cc1ccccc1Nc1nnc(SCC(=O)NCc2ccco2)s1,7,1.0,-20,-5,-1.5,19,12,1.4
CNc1cncc(-c2cccc(C(=O)N3CCOCC3)c2)n1,x,3.3,x,x,x,x,9,-1.0
c1ccc(N2CC3COc4ccccc4C3=N2)cc1 (centres undefined),x,-1.2,-54,x,x,x,17,x
O=C(O)c1cccc(NC(=O)c2ccc3c(c2)C(=O)N(c2ccccc2)C3=O)c1,6,-0.8,-23,-9,4.8,x,3,x
O=C(Nc1ccn(CCCN(CCCn2ccc(NC(=O)OCc3ccccc3)nc2=O)CCc2cc3ccccc3[nH]2)c(=O)n1)OCc1ccccc1,x,-0.2,-2,x,x,x,7,-1.3
CCOc1ccccc1C(=O)N1CCOCC1,8,i,-26,0,0.4,32,8,-0.7
Cc1cc(C(F)(F)F)nc(SCC(=O)NC2=NC(=O)C(C)S2)n1 (centres undefined),3,-7.1,-5,1,1.9,-10,-2,-0.4
COc1ccccc1-c1nc(C#N)c(N2CCC(C(N)=O)CC2)o1,-4,-0.5,2,8,3.8,26,11,1.7
COc1ccc(C(=O)N/C(=C/c2cccs2)c2nc3ccccc3[nH]2)cc1OC,1,-0.1,6,2,-2.9,7,47*,x
Cc1cnc(NC(=O)C2=C(O)c3ccccc3S(=O)(=O)N2C)s1,0&0,-0.8&-3.0&-0.7,-4,4&7&-11&-2,1.1&-5.3&-2.1&2.6,1&13,12&23&23&30,0.1&-0.3&-0.2&-1.1

# Additional results follow:
SMILES,SARS 3CLpro inh,Vc quorum ag,SSB-PriA inh,Rv3671c protease,UGM FP inh,DUSP3 inh,GDH-TPI counter,Mtb BioA inh
O=C(Nc1cnccn1)Nc1ccc(Cl)cc1Cl,3,0.6,-2,-18,-0.6,-3,9,-0.9
O=C(Cc1ccc(Cl)cc1)Nc1ccc(N2CCN(C(=O)c3ccco3)CC2)cc1,-4,-0.7,25,-7,1.8,11,4,-0.3
O=C(c1ccco1)N(Cc1ccc([N+](=O)[O-])cc1)c1ccc(Br)cc1,13*,-2.1,13,0,-0.7,26,2,4.9
CCC(C)(CN(C)C)OC(=O)c1ccccc1 (centres undefined),x,-3.0,-2,-3,-2.0,x,-9,-0.7
CC(C)CCNC(=O)C1CCN(S(=O)(=O)c2ccc3c(c2)CC(C)N3C(=O)C2CC2)CC1 (centres undefined),-2,i,-9,1,0.1,18,4,1.2
C[C@H](O)[C@@H]1C(=O)N2CCc3c([nH]c4ccccc34)[C@@H]2C[C@@H]1N(C)C(=O)Nc1ccc(F)cc1,x,-0.4,x,x,x,x,-7,11
COc1ccc(-n2nc3c(c2NC(=O)C2CCCC2)CS(=O)(=O)C3)cc1,2,-3.6,1,4,-3.5,5,-4,-1.5
COc1cc2nc(C3CCC3)nc(N3CCN(c4ccccc4OC)CC3)c2cc1OC,2,-0.4,39*,-1,-1.0,30,13,x
O=C(Nc1cccc(F)c1)c1ccc2c(c1)OCCO2,-8,-0.5,1,-12,1.0,46,2,14
Cc1csc(SCC(=O)NC2CCC(C)CC2)n1 (centres undefined),x,-0.6,-10,-12,2.0,x,10,-1.3
Cc1ccc(NC(=O)CCC(=O)NNC(=S)Nc2ccc(F)cc2F)cc1C,-4,-0.2,1,-5,5.3,24,-5,1.6
NC(=O)NCC(=O)N1CCN(S(=O)(=O)c2ccc(Cl)s2)CC1,x,3.1,-17,-6,-1.0,x,6,-0.4
Cc1nn(C)cc1C(C(=O)NC1CCCCC1)N(C(=O)c1cnccn1)c1ccc(Oc2ccccc2)cc1 (centres undefined),0,-0.3,-9,10,-0.4,4,2,x
C=CCn1c(=S)[nH]c2cc(C(=O)N3CCN(c4ccccc4OC)CC3)ccc2c1=O,x,i,1,-115,0.6,x,3,x
Nc1c2c(nn1-c1ccc(C(=O)O)cc1)CNC2,3,-0.5,7,-2,-2.8,-33,-5,-2.5
O=C(CN1CCN(C/C=C/c2ccccc2)CC1)Nc1cc([N+](=O)[O-])ccc1Cl,-3,3.5,29,-4,-0.5,14,8,0.3
CCc1cccc(NC(=O)CCNS(=O)(=O)c2cc(Br)cnc2N)c1,-4,i,-10,1,-0.4,-14,-9,0.9
NC(=O)c1ccc(NC(=O)CS(=O)(=O)c2cn(CC(=O)N3CCCCC3)c3ccccc23)cc1,3,-3.4,-1,-7,-0.2,74,2,-1.0
CC(C)c1ccc(NC(=O)COC(=O)C2=COCCO2)cc1,3,i,-5,-6,-0.8,7,1,-0.5
CNc1ccc(Oc2nc([N+](=O)[O-])nn2C)cc1,1,-1.4,4,2,2.2,14,-7,-1.6
Cc1cccn2c(=O)c3cc(C#N)c(=O)n(CCCN4CCOCC4)c3nc12,1,-0.8,-3,-7,2.4,27,7,-0.3
CCOc1cc(C=Nn2cnnc2)ccc1OC(=O)c1cccc([N+](=O)[O-])c1,x,x,-4,x,x,x,x,x
CC(CC(=O)Nc1nc2ccccc2[nH]1)c1ccccc1 (centres undefined),-7,-0.5,-11,-6,-0.7,15,-3,-2.1
CCNC(=S)NNc1nncc2ccccc12,3,-1.4,-6,2,-2.7,-2,4,x
Clc1ccc(-c2cccc3nccn23)cc1,x,i,x,x,x,x,8,1.3

# More entries follow:
SMILES,SARS 3CLpro inh,Vc quorum ag,SSB-PriA inh,Rv3671c protease,UGM FP inh,DUSP3 inh,GDH-TPI counter,Mtb BioA inh
Cc1c(C)c2c(OCC(=O)N[C@@H](C(=O)O)c3ccccc3)cc3c(c2oc1=O)CCC(C)(C)O3,5,-0.5,13,-4,-0.4,-11,35*,-0.3
COc1ccc(CNC(=O)C(c2ccc(O)cc2)N(Cc2ccco2)C(=O)c2snc(C(N)=O)c2N)cc1 (centres undefined),-5,0.3,-4,-20,-0.4,-3,0,-0.1
O=C(CSCc1ccc(F)cc1)N1CCN(c2ccccc2)CC1,3,-0.2,-9,10,-3.7,6,15,-1.9
Cc1cccn2c(=O)c3cc(C#N)c(=NC(=O)c4cccnc4)n(CC4CCCO4)c3nc12 (centres undefined),-5,i,10,4,4.5,x,7,-3.5
COc1ccc(C2CC(c3cccc(OC)c3)=NN2c2ccc(S(N)(=O)=O)cc2)cc1 (centres undefined),x,i,x,x,x,x,13,-0.9
Cc1cnc(NC(=O)C2C(=O)c3ccccc3S(=O)(=O)N2C)s1 (centres undefined),x,i,2,0,x,x,23,-0.3
Cc1cc(=O)oc2cc(NC(=O)C3CC(=O)N(Cc4ccccc4)C3)ccc12 (centres undefined),-1,i,-13,-1,0.6,27,20,2.2
CCn1c(C)cc(C(=O)CSc2nnc(-c3ccco3)o2)c1C,x,-0.2,9,-3,6.5,x,9,-1.3
CCOC(=O)/C(C#N)=C/C1=C(N2CCCC2)CC(C)(CC)OC1 (centres undefined),5,3.8,0,-1,-3.1,15,1,1.5

# Bioassay records as filed in PubChem BioAssay.
